Screening results from PubChem.
S aureus helic: inhibitors of S. aureus replicative helicase, primary screen, biochemical, fluorescence unwinding readout | replicative DNA helicase (DnaC/DnaB), Staphylococcus aureus | purified S. aureus helicase, fluorescence unwinding assay; about half of the hits fall short of the stated cut | inhibition, %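 (tested at about 80 µM)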 | actives 0.05% (n = 120,000) | AID 485395, 2010;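 active = both duplicates at 50% or more, or one of them with a favoured structure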;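 also: 0% = mean of negative control wells and 100% = mean of positive control wells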
MgrA-DNA mod: S. aureus MgrA activity modulators, primary screen, biochemical, S. aureus Newman, fluorescence polarization. MgrA-DNA binding. inhibition, %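 (about 10 µg/mL by stock and volumes)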. actives 0.13% (n = 84,000). AID 602314, 2012;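 active = above 50% in either of two replicates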;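 also: 0% = protein plus DNA without compound and 100% = DNA alone without protein; higher means less MgrA bound to DNA so lower polarization; one replicate is shown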
Numbers without * were called inactive; . = no result given; & = joins results of further samples.

S aureus helic	MgrA-DNA mod	structure
14	3.8	Cc1cc(NC(=O)CSc2cn(Cc3ccc(F)cc3)c3ccccc23)no1
-7	.	O=C(O)c1ccccc1OCC1CCCO1 (configuration not stated)
8	6.5	O=c1c(-c2cnn(-c3ccccc3)c2)coc2c3c(ccc12)OCO3
14	-0.7	CC[n+]1cccc(-c2nc3ccccc3o2)c1
6	24	COC(=O)C(NC(=O)c1ccc(Cl)cc1)C(F)(F)F (configuration not stated)
.	-3.5	CC(=O)N/C(=C\c1sc2ccccc2c1C)C(=O)O
-10	-2.4&5.5	Cc1c(N(C)C)c(=O)n(-c2ccccc2)n1C
.	-0.6	CCOC(=O)NC(=S)NCCO
6	.	CC1CCN(S(=O)(=O)c2c[nH]c(=O)[nH]c2=O)CC1
-7	-0.4	CC(Oc1ccc(Cl)cc1Cl)C(=O)NCCC1=CCCCC1 (configuration not stated)

An excerpt from above in order of their number in S aureus helic, highest first.
S aureus helic	MgrA-DNA mod	structure
14	-0.7	CC[n+]1cccc(-c2nc3ccccc3o2)c1
8	6.5	O=c1c(-c2cnn(-c3ccccc3)c2)coc2c3c(ccc12)OCO3
6	24	COC(=O)C(NC(=O)c1ccc(Cl)cc1)C(F)(F)F (configuration not stated)

Next part:
S aureus helic	MgrA-DNA mod	structure
1	-3.6	O=C(COc1ccc(Cl)cc1)N1CCNCC1
6	-0.7	CC1Cc2cc(S(=O)(=O)NCC3CCC(C(=O)Nc4ccccc4)CC3)ccc2N1C(=O)C1CC1 (configuration not stated)
-5	.	CSc1nc2ccc(NC(=O)C(C)(C)C)cc2s1
.	-4.0	Cc1ccc(OS(=O)(=O)c2ccc(F)cc2)c([N+](=O)[O-])n1
5	.	O=c1[nH]c2ccccc2n1Cc1ccc(Cl)cc1
.	0.8	COc1ccc(NC(=S)NC(C)(C)C)cc1OC
-13	.	CC1CCCC(NCC(=O)Nc2ccc(C(N)=O)cc2)C1C (configuration not stated)
5	-1.8	NNC(=O)c1ccc(CN2CCCCC2)o1
10	1.9	Nc1ccc2oc(=O)c(-c3ccccc3)cc2c1
-21	.	Cc1ccc(S(=O)(=O)Nc2nc3ccccc3nc2Nc2ccc(S(=O)(=O)Nc3onc(C)c3C)cc2)cc1
-4	-0.6	COC(=O)c1cc(C)sc1NC(=O)C1CC(=O)NN1C (configuration not stated)
-8	.	CCCNC(=S)Nc1ccccc1Br
3	.	CCCN1CCN(CCCNC(=O)c2ccc3c(c2)NC(=O)c2ccccc2S3)CC1
8	-1.3	CCN(C(=O)CSc1nc2ccccc2c2nc3ccccc3n12)c1cccc(C)c1
-12	2.8	Cc1cc2ccccn2c1CCC#N
2	.	CN(CCC#N)C(=O)Cc1ccc(F)cc1
.	-1.1	Fc1ccc(C2CN3C(=N2)C=Cc2ccccc23)cc1 (configuration not stated)
3	0.9	Cc1nc2ccccc2nc1CSc1nnc(Cc2ccccc2)n1-c1ccccc1
9	-0.2	CC(=O)Nc1nc(C)cc2c1c(=O)oc1ccccc12
5	-0.5	Cc1ccc(N(C(=O)c2ccc(Cl)cc2)C2C=CS(=O)(=O)C2)cc1 (configuration not stated)
6	-0.2	CC(C(=O)N1c2ccccc2CCc2ccccc21)n1nnc(-c2ccc(N(C)C)cc2)n1 (configuration not stated)
19	.	CN(Cc1nnc(-c2ccccc2)o1)C(=O)Nc1ccc(F)cc1
14	.	Cc1nc2cc(-c3ccccc3)nn2c(C)c1CCC(=O)Nc1ccc2c(c1)OCO2
28	.	Nc1nonc1-c1noc(COc2c(F)c(F)cc(F)c2F)n1
-16	.	COc1ccccc1N1CCN(CCCCNS(=O)(=O)c2ccc(Cl)c(Cl)c2)CC1
-28	.	C/C(=N\O)c1sc2ccc(Cl)cc2c1C
1	.	CCOC(=O)CC1=C(C(=O)OCC)C(c2ccc(C)o2)C(C#N)=C(N)O1 (configuration not stated)
2	.	Clc1nc(CN2CCCCC2)nc2sc3c(c12)CCC3
4	3.6	CC(NC1CC(C)N(C)CC1C)c1ccccc1 (configuration not stated)
0	-2.5	O=C(O)c1noc2c1CCCC2

Laid out differently: results already given
Each structure is followed by: S aureus helic | MgrA-DNA mod
Cc1nc2cc(-c3ccccc3)nn2c(C)c1CCC(=O)Nc1ccc2c(c1)OCO2
    14 | .
Nc1nonc1-c1noc(COc2c(F)c(F)cc(F)c2F)n1
    28 | .
COc1ccccc1N1CCN(CCCCNS(=O)(=O)c2ccc(Cl)c(Cl)c2)CC1
    -16 | .
C/C(=N\O)c1sc2ccc(Cl)cc2c1C
    -28 | .

Further records
S aureus helic	MgrA-DNA mod	structure
5	-2.1	CC(NC(=O)CCCn1c(=O)c2cccn2c2ccccc21)c1ccccc1 (configuration not stated)
18	.	CCn1c(C(C)N2CCCCC2)nc2ccccc21 (configuration not stated)
5	-0.1	CCn1ncc(NC(=S)NCCc2ccccc2)c1C(N)=O
8	.	Cc1ccc(Cn2c(=O)c3ccccc3n3c(SCC(=O)OC(C)(C)C)nnc23)cc1
-3	-3.5	Cc1nn(-c2ccccc2)c2c1C1C(=C(N)S2)C(=O)Oc2ccccc21 (configuration not stated)
-23	.	CCN(CC)S(=O)(=O)c1ccc2c(c1)n(C)c(=O)c(=O)n2C
13	-0.4	COc1ccc(C(=O)Nc2ccc(-c3nc4ccccc4o3)cc2)cc1OC
4	1.9	Cc1cccc(Oc2coc3cc(OC(=O)c4cccs4)ccc3c2=O)c1
-17	.	COc1ccc2c(CC(=O)OCc3cc(=O)oc4cc(OC)ccc34)coc2c1
-12	.	O=C(COC(=O)c1cccc(N2C(=O)c3ccccc3C2=O)c1)NCc1ccco1
.	-0.3	Cc1cccc(-n2ncc3ccccc3c2=O)c1
1	.	Cc1nonc1NC(=O)OC(C)C
4	-0.5	CC(C(=O)NC1CC1)N(c1cccc(Cl)c1)S(C)(=O)=O (configuration not stated)
-9	.	OCC(CO)(CO)NC(=S)Nc1ccc(F)c(Cl)c1
-5	0.8	COc1cccc(OC(=O)N2CCOCC2)c1
1	-0.7	CCc1ccccc1NC(=S)N(CCc1ccncc1)C(C)C
-1	.	CC(=O)Nc1cccc(-c2nc3cc(Cl)cc(Cl)c3o2)c1
8	.	Fc1cc(F)c2nc(N3CCN(c4nc5ccccc5s4)CC3)sc2c1
13	0.8	CCOC(=O)N1CCC(NC(=O)c2ccc(NC(=O)C3CCCO3)cc2)CC1 (configuration not stated)
-12	.	O=C(Nc1nnc(C2CC2)s1)C1Cc2ccccc2CN1C(=O)c1ccco1 (configuration not stated)
7	-1.1	CCc1c(C(=O)Nc2ccncc2)csc1C
-2	-3.0	Cc1nn2c(N(C)CCO)c3c(nc2c1-c1ccc(F)cc1)CCCC3
13	.	FC(F)Oc1ccccc1-n1cccc1
5	0.4	O=C(NCc1ccccc1)C1C2C=CC3(CN(Cc4cccnc4)C(=O)C13)O2 (configuration not stated)
13	0.5	O=C(NO)C12CCCC(CCC1)C2
.	1.9	CCCC(C1C(=O)CC(C)(C)CC1=O)C1C(=O)CC(C)(C)CC1=O
.	-1.7	N=C(N)c1cc(Cl)cc(Cl)c1
.	0.1	CC1CC(=O)N(c2ccccc2OC(F)(F)F)C1=O (configuration not stated)
6	-2.3	CC(C)C(=O)N1c2ncnn2C(c2ccccc2)CC1c1ccccc1 (configuration not stated)
14	1.9	CC(=O)Nc1ccc(S(=O)(=O)NC2=NCN(C)CN2)cc1
18	0.1	COc1cccc(-c2nn(C)c3sc(C(=O)N4CCCCCC4)cc23)c1
18	.	Cc1ccc2c(cnn2C(=O)CCCC(=O)N2CCc3ccccc32)c1
18	.	O=C(/C=C1\Sc2ccccc2NC1=O)NC1CCCCC1
7	-6.2	CCNC(=O)Nc1ccc2nc(C)n(Cc3cccc(Cl)c3)c(=O)c2c1
.	0.6	CN1C(CC(=O)c2ccccc2)CCCC1CC(O)c1ccccc1 (configuration not stated)
.	-2.9	COc1cc(C(=O)Nc2ccccc2-c2nc3ccccc3s2)cc(OC)c1OC
15	.	CC1(C)OC(=O)C(=CNc2ccccc2O)C(=O)O1
.	1.1	c1ccc2c(c1)NC(c1cccc3ccccc13)O2 (configuration not stated)
-1	.	CC(C(=O)N1CCN(Cc2ccccc2)CC1)N1CCN(S(=O)(=O)c2cccc(F)c2)CC1 (configuration not stated)
0	.	Cc1cccc(-c2nnc(NC(=O)C(C)(C)C)s2)c1
13	-1.0	CCCNc1nc(Cl)nc(Cl)n1
.	-1.7	NS(=O)(=O)c1ccc(F)cc1Cl
28	.	O=C(NC1CCCC1)C(Cc1ccccc1)NS(=O)(=O)c1cccs1 (configuration not stated)
5	3.4	COc1ccc(-c2cnn(-c3ccccc3)c2N)cc1OC
5	.	O=C(NC(=O)c1ccccc1)Nc1cc(N2CCCCC2)ncn1
16	-0.3	Cn1c(SCc2ccccc2)nnc1-c1ccccc1
.	-1.1	O=C1N=c2ccc(Br)cc2=C1c1sc(=O)n(Cc2ccccc2)c1O
17	.	CCOC(=O)C(CC)Oc1ccc2c(=O)c(-c3ccc(Cl)cc3)coc2c1 (configuration not stated)
9	.	CCSC(=Nc1ccccc1)Nc1ccccc1
-16	.	O=C(Nc1ccc2oc(-c3cccnc3)nc2c1)c1cccnc1Cl

Complete entries, quoted from the list. Order of screens: S aureus helic	MgrA-DNA mod
O=C(Nc1nnc(C2CC2)s1)C1Cc2ccccc2CN1C(=O)c1ccco1 (configuration not stated) in the list: -12	.
CCn1ncc(NC(=S)NCCc2ccccc2)c1C(N)=O in the list: 5	-0.1
CC(NC(=O)CCCn1c(=O)c2cccn2c2ccccc21)c1ccccc1 (configuration not stated) in the list: 5	-2.1

Next part.
S aureus helic	MgrA-DNA mod	structure
6	5.5	O=C(NC1CCCC1)c1c(F)c(F)c(F)c(F)c1F
-30	.	CCOC(=O)N1CCC(NC(=O)c2ccc(CO)c(C(=O)NC3CCN(C(=O)OCC)CC3)c2)CC1
-1	0.0	COc1cccc(OCc2nc3ccccc3c(=O)n2N)c1
6	.	CNC(=O)c1cc2c(=O)n3ccccc3nc2n1C
5	-2.5	CC1(C)Cc2nc3sc4c(NCCO)ncnc4c3cc2CO1
11	-7.2	O=C(O)CC1(CC(=O)Nc2ccccc2O)CCCC1
-10	.	N#CCSc1ccc2c(c1)OCCO2
11	-4.1	CCOc1cc(CNn2cnnc2)cc(Cl)c1OCC(=O)NC(C)(C)C
15	-1.4	Cc1ccccc1C(=O)c1ccc2c(c1)n(C)c(=O)n2C
-17	.	CCOc1ncccc1C(=O)OCc1nc2ccccc2s1
.	1.5	CCCc1ccc(-c2nc(-c3ccccc3)no2)cc1
13	.	O=C1CSc2nnc(-c3cccs3)n21
0	.	CCOc1cccc2cc(C(=O)NC3CC(C)(C)NC(C)(C)C3)c(=O)oc12
.	-1.7	O=C(Nc1nnc(C2CC2)s1)c1cc(Cl)sc1Cl
10	-2.3	COc1ccc(NC(=S)Nc2ccccc2)cc1
10	-0.3	O=C(CCN1C(=O)COc2ccccc21)NCCN1CCc2ccccc2C1
-27	.	O=C(c1oc(=O)c2ccccc2c1-c1ccccc1)N1CCN(C2CCCCC2)CC1
0	-3.4	CC(C)OC(=O)[C@@H]1CCN[C@@H]1c1ccccc1
10	.	Cc1cccc(CSc2nnc(CCC(=O)O)c(=O)[nH]2)c1
.	2.0	CC1=C(C(=O)OC2CCCC2)C(c2ccccc2OCc2ccccc2)NC(=O)N1C (configuration not stated)
36	.	Cc1ccc(-c2nn(CCC(=O)NC(C)C)c(=O)c3ccccc23)cc1
.	0.2	O=C(NCc1csc(-c2cccs2)n1)Nc1cccc(Cl)c1
-8	.	COC(=O)C(NC(=O)c1cccnc1Cl)C(C)C (configuration not stated)
-5	.	O=C1N/C(=N\c2ccccn2)SC1Cc1ccccc1 (configuration not stated)
13	0.9	COC(=O)C1CCN(C(=O)C(C)Oc2ccccc2)CC1 (configuration not stated)
16	-4.6	COc1ccc(C(C)N(C)CCC(=O)O)cc1OC (configuration not stated)
10	3.0	CCOC(=O)N1CCN(C(=O)CCN2C(=O)/C(=C/C=C/c3ccccc3)SC2=S)CC1
5	-1.8	Cc1ccc(S(=O)(=O)N(C)Cc2nc(-c3ccc(Cl)cc3)no2)cc1
4	6.6	O=C(O)CCCn1c2ccccc2c2cn[nH]c(=O)c21
6	0.4	CCN(CC)C(=O)c1cn(C)c(=O)c2cc(OC)c(OC)cc12
7	-2.5	COc1cc2c(cc1OC)C(C)N(C(=O)c1cc3c(Cl)nc4ccc(C)cc4c3s1)CC2 (configuration not stated)
.	-1.9	O=c1[nH]nc(SCCS(=O)(=O)c2ccc(F)cc2)n1-c1ccccc1
.	-2.2	COc1cccc(NC(=O)CSc2nc3ccccc3n2C(C)=O)c1
10	3.2	CC(C)Cn1c(SCC(=O)c2ccc(Cl)cc2)nc2ccccc2c1=O
.	0.4	CC(C)[C@H](N)C(=O)OCCOCn1cnc2c(=O)[nH]c(N)nc21
-8	.	CCCCn1c(C2CC(=O)N(Cc3ccccc3)C2)nc2ccccc21 (configuration not stated)
31	.	CC(C)=NNC(=O)Cc1c[nH]c2cccc(OCC(O)CNC(C)(C)C)c12 (configuration not stated)
-7	0.0	Nc1nc(NC(=S)Nc2ccccc2)cc(=O)[nH]1
11	.	NC(=O)c1cc(-c2csc(N3CCCC3)n2)ccc1O
0	0.0	CCc1ccccc1NC(=O)NCc1c(-n2cccc2)sc2c1CCCC2
-9	-1.9	O=c1[nH]c(=O)n([C@@H]2O[C@H](CO)[C@@H](O)[C@H]2O)cc1Br
2	-3.0	CC(Nc1nc(F)cc(=O)[nH]1)C(=O)O (configuration not stated)

This is a subset; count on the stated rates, not on these rows.
